Bioassay records from PubChem BioAssay.
VACV Venus inh: vaccinia inhibition (Venus reporter); Vaccinia virus Venus reporter expression, fluorescence; Potency, µM (doses to about 36.5 µM), without a hit: at the top dose activity change, negative = inhibition, actives largely listed as inhibitors; 330,000 compounds, 0.46% hits; active means well fitted inhibition curve with a large enough effect; inconclusive means small, poorly fitted or top-dose-only effect; inactive means no such curve, though single readings can be large or run the other way; tested in A549 cells; note: nearly all actives have a fitted effect of over 30% in size; inactives centre near -10
Vaccinia mCherry: vaccinia inhibition (mCherry reporter) | Vaccinia virus mCherry reporter infection, fluorescence; about a quarter of the inactives have no number | Potency, µM (series often up to 36.5 µM), without a hit: top-dose activity change, negative = inhibition, actives largely listed as inhibitors | 310,000 compounds, 0.63% hits; active = well fitted inhibition curve with a large enough effect; inconclusive = small, poorly fitted or top-dose-only effect; inactive = no such curve, though single readings can be large or run the other way; tested in A549 cells; note: nearly all actives have a fitted effect of over 35% in size; inactives centre near -10
* = called active by the depositor; i = inactive; ? = inconclusive; · = no result given; [ ] = remark or other dose. % is set by controls: 0 for no effect and ±100 for the full control effect; potency is the fitted concentration of half-maximal effect.

SMILES | Vaccinia mCherry | VACV Venus inh
Cc1ccc(Cn2c(=O)c3cccnc3n(Cc3ccc(C)cc3)c2=O)cc1 | -16% | 3%
O=S(=O)(NCC1CCCO1)c1ccc(S(=O)(=O)N2CCCC2)cc1 (stereo not given) | -13% | -10%
CN(Cc1ccccc1)C1=CC(=[N+]2CCCCC2)CC(C)(C)C1 | i[7.34 µM] | -21%[7.34 µM]
COc1ccc(-c2csc(NC(=O)c3ccc(N4C(=O)CCC4=O)cc3)n2)cc1OC | -15% | -15%
CC1Cc2[nH]c(=S)[nH]c(=O)c2C(c2ccc(C(C)C)cc2)O1 (stereo not given) | -4% | -11%
O=C(c1ccc(CS(=O)(=O)c2ccc(Br)cc2)o1)N1CCN(c2ccccn2)CC1 | -13% | -16%
O=C(Nc1cccc(OC(=O)N2CCCCC2)c1)N1CCOCC1 | -11% | -17%
COC(=O)Cc1c(C)nc2nc(NCc3ccc(Br)cc3)[nH]n2c1=O | -16% | -10%
Cc1ccccc1-c1n[nH]c(=S)n1C | i | -7%
CC(C)Cn1c(/C=N/Nc2nc3ccccc3[nH]2)nc2ccccc21 | ? | ?
COc1ccc2[nH]c(C(=O)NCCCN3CCCC3=O)c(C)c2c1 | -15% | -6%
c1ccc(-c2ccccc2OCCCN2CCOCC2)cc1 | i | -8%
O=C(COC(=O)/C=C/c1cccc(C(F)(F)F)c1)NC(c1ccccc1)c1ccccc1 | -10% | -11%
COc1cc2nc(N3CCCN(C)CC3)nc(N)c2cc1OC | -19% | -16%
COc1ccc2c(c1)C(NS(=O)(=O)OCC(Cl)(Cl)Cl)CCC2 (stereo not given) | i | -2%

New compounds follow.
SMILES | Vaccinia mCherry | VACV Venus inh
COc1ccc(CNC(=O)C[C@H]2C[C@H](C(=O)N3CCOCC3)[C@@]3(C)c4[nH]c5cc(CCC(=O)N(C)C)ccc5c4CCN3C2=O)cc1OC | -2% | 16%
NC(CC(=O)OC1CCCCC1)C(=O)OC1CCCCC1 (stereo not given) | · | -14%
COCCCN1C(=O)C(CC(=O)NC(c2ccccc2)c2ccccc2)CC(C(=O)N(C(C)C)C(C)C)=C1C (stereo not given) | 11% | 4%
O=c1[nH]c2ccccc2c2ccccc12 | 7%[87.9 µM] | 3%[87.9 µM]
CCCCN1CC(COCc2ccccc2)Oc2cccc(N3CCCC3)c2S1(=O)=O (stereo not given) | -16% | -30%
Cc1cc(C(=O)NNC(=O)Nc2ccccc2)no1 | -12% | -11%
O=C(N/N=C/c1ccccn1)c1cc(-c2ccc(Br)cc2)nc2ccccc12 | ? | ?
COC(=O)c1ccc(NC(=O)CSc2nncc3ccc(OC)c(OC)c23)cc1 | i | -15%
COc1cc(C(=O)NCCOc2cccc(C)c2)c(Br)c(OC)c1OC | -1% | -7%
Cc1ccc(C2=NC3(CCCCCC3)NC2=S)cc1 | 7% | 19%
O=C(CCN1C(=O)/C(=C/c2cccs2)SC1=S)N1CCCCC1 | ? | ?
COc1ccccc1CC(=O)Nc1cccc(F)c1 | 9% | 1%
CCOc1ccc(NC(=O)Nc2nnc(CC)s2)cc1 | · | -22%
Cc1c(Cl)cccc1NS(=O)(=O)c1ccccc1 | -4% | -16%
COc1ccc(C)cc1NS(=O)(=O)c1ccc2[nH]c(=O)c(=O)[nH]c2c1 | 0% | 5%

Single records (already shown):
CCCCN1CC(COCc2ccccc2)Oc2cccc(N3CCCC3)c2S1(=O)=O (stereo not given) as listed: Vaccinia mCherry = -16%; VACV Venus inh = -30%
COCCCN1C(=O)C(CC(=O)NC(c2ccccc2)c2ccccc2)CC(C(=O)N(C(C)C)C(C)C)=C1C (stereo not given) as listed: Vaccinia mCherry = 11%; VACV Venus inh = 4%

(next part)
SMILES | Vaccinia mCherry | VACV Venus inh
CCOc1ccc(NC(=O)Cn2cc(C(=O)c3ccc(C)c(C)c3)c(=O)c3cc(F)ccc32)cc1 | -13% | -11%
Cc1cccc(C2NC(=O)c3ccccc3O2)c1 (stereo not given) | -17% | -6%
COC(=O)CN1C(=O)C2(C(C#N)=C(N)Oc3n[nH]c(-c4cccs4)c32)c2ccccc21 (stereo not given) | -19% | -7%
CCSc1nc2ccccc2n1CC(=O)OC | -5% | 1%
CC1(NC(=S)Nc2ccccc2)CCS(=O)(=O)C1 (stereo not given) | -13% | -8%
CCCCN1C[C@H](COC(=O)CCC)Oc2cccc(F)c2S1(=O)=O | -15% | 10%
COc1cccc(C(NC(C)=O)c2nc(-c3ccccc3C)cs2)c1 (stereo not given) | i | -5%
CCc1nc2c(OCCC3CCCCC3)cccn2c1N(C)C(=O)c1ccncc1 | 12% | -16%
O=C(Nc1ccccc1)Nc1cccc(Cl)c1Cl | ? | ?
Cc1c(NC(=O)c2cc3nc(-c4ccc(Cl)cc4)cc(C(F)(F)F)n3n2)c(=O)n(-c2ccccc2)n1C | -7% | -8%
Cc1c(Cl)cccc1-n1ncc(C(=O)N2CCC(C)CC2)c1C1CCN(C(=O)OC(C)(C)C)CC1 | -6% | -1%
COc1ccc(Nc2ccc(Cl)cc2)c(C(=O)O)c1 | i | -13%
c1ccc(OCCCn2nnc(-c3ccc(N4CCOCC4)cc3)n2)cc1 | 0% | -15%
O[C@H]1c2ccccc2[C@H](Cc2cncs2)[C@@H]1Br | i | -6%
CCN(C(=O)CSc1nc(-c2ccccc2)no1)c1cccc(C)c1 | 2.8µM* | ?

Following part.
SMILES | Vaccinia mCherry | VACV Venus inh
Cc1cccc(C)c1NC(=O)C(c1ccc(C#N)cc1)n1c(=O)c(-c2ccccc2)nc2ccccc21 (stereo not given) | ? | ?
O=C(COc1ccc(Nc2ccccc2)cc1)Nc1ccncc1 | ? | -2%
Cc1cc(-c2ccccc2)nc2cc(C(=O)Nc3cc(C(F)(F)F)ccc3Cl)nn12 | -4% | -7%
O=C(c1cccc(Cl)c1)N1CCC(c2nc3ccccc3o2)CC1 | -5% | -9%
O=C1CCCC(=O)C1C(=O)C1CCN(S(=O)(=O)c2ccccc2)CC1 | i | 2%
O=C(NC1=NCCS1)C1CC2CCC1C2 (stereo not given) | -12% | -3%
CC(=O)N1c2c(cc(Br)cc2S(=O)(=O)N2CCOCC2)CC1C (stereo not given) | 1% | 6%
O=C(CCn1c(=O)oc2cc(Cl)ccc21)Nc1ccc(N2CCOCC2)cc1 | -22% | -13%
O=C(OCc1nnc(-c2ccccc2)o1)C1CC(=O)N(c2ccccc2)C1 (stereo not given) | -6% | 2%
CC(C)c1ccc2[nH]c3c(c2c1)[C@@H]1CCN2C(=O)CCC[C@H](C3)[C@H]12 | -25% | ?
CSC1=NCCN1C(=O)Cc1ccc(F)cc1 | i | 5%
COc1cccc(-c2ccc(-c3noc(-c4cccs4)n3)c(OC)n2)c1 | · | 20%
CCN(CC)c1ccc(/C=C/[N+](=O)[O-])cc1 | -25% | 7%
CCC(C)N(C(=O)COC(=O)c1[nH]c(C)c(C(C)=O)c1C)C1CCS(=O)(=O)C1 (stereo not given) | -14% | -9%
Nc1c(C(=O)NC2CCCC2)c2nc3ccccc3nc2n1N | ? | -18%

(continued)
SMILES | Vaccinia mCherry | VACV Venus inh
CCCCNC(=O)C1(C)CCCCN1CC(=O)c1ccc(OC)cc1 (stereo not given) | 0% | -13%
COc1cccc(CNC(=O)[C@@H]2CCCN2C(=O)[C@@H]2CCCN2C(=O)c2c(F)cccc2F)c1 | 31%[activator] | 1%
COc1cc(C(=O)OCC(=O)Nc2cc(-c3cc(C)c(C)cc3C)nn2-c2ccccc2)cc(OC)c1OC | i | -6%
O=C(Nc1nc2c(s1)CN(Cc1ccccc1)CC2)C1CCC1 | -13% | -17%
COc1ccc(CNC(=O)CCCN2C(=O)COc3ccc(C)cc32)cc1 | -11% | 0%
CN(CC(=O)Nc1ccccc1Cl)C(=O)c1cc(-c2cccs2)nn1-c1ccccc1 | -10% | -7%
COC(=O)[C@H]1C[C@H]2[C@@H]3CC[C@H]4C[C@@H](OC)CC[C@]4(C)[C@H]3CC[C@]2(C)[C@@]2(CCCO2)O1 | i | -21%
Cc1ccc(C(=O)NC2CCN(C(=O)NCc3ccccc3)CC2)cc1 | -3% | -5%
O=C(N/N=C/c1ccc[nH]1)c1ccccc1O | -13% | -7%
CC(C)(C)C(=O)NC(=S)Nc1sc2c(c1C(N)=O)CCC2 | -16% | -15%
O=C(CN1CCC(NC(=O)c2ccccc2F)CC1)NCc1ccc(F)cc1 | -11% | -14%
O=C(CCNS(=O)(=O)c1ccc2ccccc2c1)NCCOc1ccccc1 | ? | -30%
O=C1CCCC(=O)N1CCCCCCN1C(=O)CCCC1=O | -11% | -4%
O=c1c(O)c(-c2ccc3c(c2)OCO3)oc2ccccc12 | i | -7%
O=C(COC(=O)COc1cccc(C(F)(F)F)c1)NC1CCCC1 | -14% | -6%

Continued.
SMILES | Vaccinia mCherry | VACV Venus inh
CSCCC1Nc2ccc(S(=O)(=O)N3CCOCC3)cc2NC1=O (stereo not given) | -1% | 4%
Cn1nc(-c2ccccc2)c2nc3ccccc3nc21 | · | 0%
CCCCCCNS(=O)(=O)c1ccc(NC(=O)C2CCCO2)cc1 (stereo not given) | -24% | -13%
CC1Cc2ccccc2N1C1=CC(=O)CC(C)(C)C1 (stereo not given) | i | 2%
COc1cccc(S(=O)(=O)NCc2ccc(C(=O)Nc3ccc(Cl)cc3)cc2)c1 | -25% | -22%
Cc1cc(C)c2c(N)c(S(=O)(=O)Cc3ccccc3)sc2n1 | · | -13%
CN1CCN(CCNC(=O)Nc2ccccc2C(F)(F)F)CC1 | · | -8%
CC(C)(C)c1ccc(S(=O)(=O)NCc2nc3cccnc3n2Cc2ccccc2Cl)cc1 | ? | ?
CN1C(=O)/C(=C/c2cc(C(C)(C)C)c(O)c(C(C)(C)C)c2)NC1=S | -12% | 0%
Cc1ccc(N(CCCCN2C(=O)c3ccccc3C2=O)C(=O)c2ccc(Cl)s2)cc1 | i | -12%
CC1(C(=O)NS(=O)(=O)c2ccccc2Cl)CCN1C(=O)c1ccccc1 (stereo not given) | 31%[activator] | 7%
CCSC(C)CC1C/C(=N/O)c2c(C)noc2C1 (stereo not given) | -5% | -9%
O=C(O)C(O)[C@@](O)(Cc1ccc(O)cc1)C(=O)O (stereo not given in full) | -17% | -12%
CNC(=O)Oc1ccc(N(C)C)cc1C(C)C | i | -17%
CCCCCCCCCCCCCCCC(=O)OC(CC(=O)O)C[N+](C)(C)C (stereo not given) | ? | ?

Continued.
SMILES | Vaccinia mCherry | VACV Venus inh
CCCn1nnc(NC(=S)NC(=O)Cc2ccccc2)n1 | 2.2µM* | ?
CCN(CCCNC(=O)c1nn(-c2ccc(OC)c(Cl)c2)c(=O)c2c1c1ccccc1n2C)c1ccccc1 | -13% | -10%
CN(C)S(=O)(=O)c1cccc(-c2nnc(SCc3cc(Cl)cc4c3OCOC4)n2N)c1 | -17% | -12%
COc1ccc(N2CCN(C(CNC(=O)C(=O)NCCCn3ccnc3)c3ccco3)CC2)cc1 (stereo not given) | -23% | -2%
CCCCCCCCCC[n+]1ccc(/C=C/c2c[nH]c3ccccc23)cc1 | ? | 157%[activator]
Nc1ccc(OCCc2ccccc2)cc1 | ? | 16%
COc1ccc2oc(C(=O)OCC(=O)N3CCCCC3C)c(C)c2c1 (stereo not given) | i | -12%
CCN(CC)CCNC(=O)Cn1cnc2sc(C)c(S(=O)(=O)N3CCN(c4ncccn4)CC3)c2c1=O | i | -19%
O=c1[nH]nc(-c2ccc([N+](=O)[O-])o2)c(=O)[nH]1 | i | 11%
Cc1ccc(-c2nn(-c3ccccc3)cc2/C=N/NC(=O)CSc2nnc(C)n2-c2ccccc2)cc1 | · | ?
CCOC(=O)C1CCCN(C(=O)/C=C/c2ccc([N+](=O)[O-])cc2)C1 (stereo not given) | i | -8%
COc1ccccc1NC(=S)NNC(=O)c1nn(C)c(C)c1Cl | -13% | -6%
Cc1cc2c(cc1[N+](=O)[O-])NC(CNC(C)C)CC2 (stereo not given) | -14% | -8%
Cc1ccc(OCC(=O)OCc2cc(=O)n3ccsc3n2)cc1C | -7% | -5%
C[C@H](NC(=O)c1nc[nH]c1C(=O)N(C)Cc1ccccc1)C(=O)OC(C)(C)C | i | -1%

Individual results from the results shown:
In VACV Venus inh, CCCCCCCCCC[n+]1ccc(/C=C/c2c[nH]c3ccccc23)cc1 is listed with 157%[activator]
In Vaccinia mCherry, COc1ccccc1NC(=S)NNC(=O)c1nn(C)c(C)c1Cl is listed with -13%
In Vaccinia mCherry, CN(C)S(=O)(=O)c1cccc(-c2nnc(SCc3cc(Cl)cc4c3OCOC4)n2N)c1 is listed with -17%
In VACV Venus inh, O=c1[nH]nc(-c2ccc([N+](=O)[O-])o2)c(=O)[nH]1 is listed with 11%
In VACV Venus inh, CCOC(=O)C1CCCN(C(=O)/C=C/c2ccc([N+](=O)[O-])cc2)C1 (stereo not given) is listed with -8%
In Vaccinia mCherry, Cc1ccc(OCC(=O)OCc2cc(=O)n3ccsc3n2)cc1C is listed with -7%
In VACV Venus inh, CCN(CC)CCNC(=O)Cn1cnc2sc(C)c(S(=O)(=O)N3CCN(c4ncccn4)CC3)c2c1=O is listed with -19%

Going on with the list.
SMILES | Vaccinia mCherry | VACV Venus inh
Cc1cc(C)cc(N(CC(=O)NC2CCCC2)C(=O)CNC(=O)c2cccs2)c1 | -20% | -16%
O=C(Cn1nnc(-c2ccccc2F)n1)Nc1ccc(C(=O)N2CCOCC2)cc1 | · | -6%
COc1ccc(N(C(=O)c2ccco2)C(C(=O)NC2CCCC2)c2ccc(OC)c(OC)c2)cc1 (stereo not given) | -13% | 1%
Clc1nc(NCC2CCCO2)c2[nH]cnc2n1 (stereo not given) | -24% | -14%
O=C(O)C1C2C=CC(C2)C1C(=O)Nc1ccc(Cl)c(Cl)c1 (stereo not given) | i | 2%
COc1cc(OC)cc(C2=Cc3ccccc3C(CC(C)=O)N2c2ccc(C#CCCO)cc2)c1 (stereo not given) | 11% | -6%
